Mtb growth – M. tuberculosis H37Rv growth inhibitors, H37Rv strain (AID 1626); inhibition, % at 10 µM, or IC50 in µM where a hit was titrated; M. tuberculosis H37Rv growth inhibition; higher % means a stronger effect; actives 0.95% (n = 220,000);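 active means confirmed in a dose series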;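 further: bacteria incubated seven days before Alamar blue readout; 0% = bacteria only wells and 100% = bacteria with antibiotic wells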
Arbovirus anti – blocks arbovirus infection; arbovirus infection cell-based antiviral screen; actives 0.37% (n = 200,000); inhibition, % at 10 µM; AID 1251;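 active means inhibition from about 30%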;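 further: bluetongue infection of BSR cells; cell survival read as ATP light after 72 h; 0% = infected wells without compound and 100% = uninfected wells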
Mtb bLac sens – beta-lactam sensitization of Mtb H37Rv. actives 0.27% (n = 330,000). M. tuberculosis H37Rv growth with meropenem, percent inhibition; hits of this screen are not shown here. inhibition, % at 25 µM;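 active means about 74% or more and at least 40 points above the plate without the antibiotic, then above 30% in a dose series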;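 further: growth measured after seven days incubation then overnight dye step; 0% = bacteria only wells and 100% = bacteria with antibiotic; twin plates without the antibiotic show which effects depend on it; some results filed as inactive read as strong as hits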
YopH inh – YopH (Yersinia) phosphatase inhibition; fluorescence Ex485/Em525; inhibition, %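 (about 10 µM by stock and volumes)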; actives 0.16% (n = 140,000); AID 898;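 active means inhibition of 50% or more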;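 further: controls were vehicle for no effect and minimum signal wells for full effect; inactives centre near -20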
RecA splice inh – inhibitors of M. tuberculosis RecA intein splicing; AID 2221; P9WHJ3; actives 0.75% (n = 290,000); cell-free RecA intein splicing, fluorescence; inhibition, %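 (about 9 µM by stock and volumes)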; in the data active means inhibition above about 30%;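 further: 0% = vehicle wells and 100% = reference inhibitor control wells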
Target sequence (P9WHJ3 whole entry, looked up, canonical isoform): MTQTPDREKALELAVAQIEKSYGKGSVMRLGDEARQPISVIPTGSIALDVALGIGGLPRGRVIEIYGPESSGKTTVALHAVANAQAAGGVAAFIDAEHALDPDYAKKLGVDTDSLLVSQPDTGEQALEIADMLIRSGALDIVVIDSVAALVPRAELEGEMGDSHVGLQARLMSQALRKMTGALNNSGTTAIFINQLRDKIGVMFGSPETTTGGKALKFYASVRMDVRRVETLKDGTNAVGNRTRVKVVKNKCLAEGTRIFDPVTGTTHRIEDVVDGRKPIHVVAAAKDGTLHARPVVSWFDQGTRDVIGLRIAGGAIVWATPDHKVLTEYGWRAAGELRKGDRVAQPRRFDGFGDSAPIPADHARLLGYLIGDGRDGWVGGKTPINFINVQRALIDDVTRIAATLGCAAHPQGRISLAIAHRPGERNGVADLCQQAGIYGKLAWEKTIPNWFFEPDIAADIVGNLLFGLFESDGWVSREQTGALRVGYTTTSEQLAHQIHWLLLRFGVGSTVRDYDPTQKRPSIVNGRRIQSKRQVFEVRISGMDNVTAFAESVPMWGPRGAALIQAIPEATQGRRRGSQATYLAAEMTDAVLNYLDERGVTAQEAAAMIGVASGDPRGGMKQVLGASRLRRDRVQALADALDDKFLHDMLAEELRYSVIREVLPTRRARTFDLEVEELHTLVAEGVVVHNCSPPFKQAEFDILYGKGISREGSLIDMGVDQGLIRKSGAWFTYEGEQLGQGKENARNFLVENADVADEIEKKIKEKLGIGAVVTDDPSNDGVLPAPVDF
* marks the source's active call; other numbers are inactive results; x = no result given.

(1) Cc1ccc(NC(=O)CN(C)CC(=O)Nc2ccccc2C#N)cc1
(2) Fc1ccccc1CSc1nnc2ccc(-c3ccncc3)nn12
(3) CS(=O)(=O)N(CC(=O)Nc1ccc(Br)cc1F)C1CCCCC1
(4) CCc1nnc(-n2nc(C)cc2-c2ccccc2)n1N
(5) CC(C)(C)n1nnnc1C(c1cccs1)N1CCCC2(CCCCC2)C1 (centres undefined)
(6) O=S1(=O)[C@H]2C[C@@H]3C=C[C@]2(CN1Cc1ccc(C(F)(F)F)cc1)O3

Compound,1,2,3,4,5,6
Mtb growth,-1.9%,-4.7%,x,-4.7%,3.1%,-8.8%
Arbovirus anti,9.0,-2.2,x,-0.8,14.8,x
Mtb bLac sens,9.4,-9.1,-2.4,19.4,-2.2,-5.7
YopH inh,x,x,x,-12.8,36.2,x
RecA splice inh,-1.0,1.0,0.5,x,-0.5,-0.1

(7) O=C(NCCCN1CCCC1)c1cc(Sc2ccc(F)cc2)nc2ccccc12
(8) CCCCn1c(-c2ccsc2)nc2c1c(=O)[nH]c(=O)n2CCC
(9) Cc1cccc(C(=O)N2CCc3c([nH]c4ccccc34)C2CC(C)C)n1 (centres undefined)
(10) CCCCn1c(N)c(N(CCC(C)C)C(=O)Cc2ccc(S(=O)(=O)N3CCOCC3)s2)c(=O)[nH]c1=O
(11) COc1cccc(C2C(C#N)=C(N)Oc3cc(N)ccc32)c1OC (centres undefined)
(12) CCCc1nc2ccccc2c(=O)n1-c1ccc(OC)cc1

Compound,7,8,9,10,11,12
Mtb growth,2.2%,-3.6%,4.1%,x,-10.9%,0.1%
Arbovirus anti,-14.4,2.2,3.2,x,3.1,3.7
Mtb bLac sens,-12.3,-5.5,-4.7,-7.7,6.2,-0.5
YopH inh,x,-12.4,x,x,-32.8,-111.5
RecA splice inh,-0.7,-5.5,-1.2,-2.7,-22.9,-1.0

(13) Cc1c(C(=O)N(C)Cc2ccccc2)oc2c(Cl)cccc12
(14) CCCOC(=O)C1=C(C)NC2=C(C(=O)C(C(=O)OC)C(C)C2)C1c1ccc(N(C)C)cc1 (centres undefined)
(15) CCN(CC)CCNC(=O)CNC(=S)N(CCCN1CCOCC1)Cc1cccs1
(16) CC(C)Oc1ccc(NC(=O)C2CCCNC2=O)cc1 (centres undefined)
(17) O=C1/C(=C/c2cccnc2)N2CCC1CC2
(18) CCc1ccc2[nH]c(=O)c(CN(Cc3ccc(OC)cc3)Cc3nnnn3CCOC)cc2c1

Compound,13,14,15,16,17,18
Mtb growth,x,-2.3%,-1.2%,9.7%,-7.2%,7.9%
Arbovirus anti,x,1.1,1.9,0.3,-3.1,-5.6
Mtb bLac sens,1.6,-3.0,8.1,-2.1,-2.9,x
YopH inh,x,-38.2,x,-45.0,x,-17.4
RecA splice inh,8.4,-3.4,-2.3,-0.1,-2.7,1.1

(19) CCCC(NC(=O)COc1cc2c(c3oc(=O)c(C)c(C)c13)CCC(C)(C)O2)C(=O)O (centres undefined)
(20) Cc1nn(Cc2ccc(Cl)cc2)c2sc(C(=O)OCC(N)=O)cc12
(21) Cc1ccc(-c2nc3ncccn3c2NC2CCCC2)o1
(22) Cc1ccc(S(=O)(=O)N(Cc2ccccc2F)C(=O)N2CCN(C)CC2)cc1
(23) Fc1ccc(-c2cnc3n2CCCCC3)cc1
(24) COc1cc(C2SCC(=O)N2Cc2ccccc2)cc(OC)c1OC (centres undefined)

Compound,19,20,21,22,23,24
Mtb growth,x,-8.1%,4.2%,x,1.2%,x
Arbovirus anti,x,5.6,3.4,x,9.5,x
Mtb bLac sens,6.1,-0.4,17.5,-1.4,8.0,-5.9
YopH inh,x,-17.8,-9.8,x,x,x
RecA splice inh,-0.4,3.2,-8.6,0.0,-0.7,0.2

(25) O=C(Nc1ccc2c(c1)OCO2)NC1(C(F)(F)F)Oc2ccccc2O1
(26) COc1ccc(NC(=O)/C(=C/c2ccc3c(c2)OCO3)NC(C)=O)cc1
(27) CCOC(=O)c1c(/N=C/C2C(=O)CCCC2=O)sc(C)c1C
(28) Cc1cccc(C)c1NC(=O)CSc1nc2ccccc2c(=O)[nH]1
(29) Clc1ccccc1SCc1nc2ccccc2[nH]1
(30) Cc1cc(NC(=O)COC(=O)c2cc(S(=O)(=O)N(C)c3ccccc3)ccc2Cl)no1

Compound,25,26,27,28,29,30
Mtb growth,-10.6%,3.3%,6.2%,-0.6%,3.0%,-15.4%
Arbovirus anti,7.6,-7.0,-12.2,-6.6,-6.1,x
Mtb bLac sens,0.9,-1.5,0.7,-0.7,22.4,-10.4
YopH inh,-10.2,-0.4,-24.9,-23.8,-18.0,x
RecA splice inh,-4.8,-0.8,-6.9,3.0,x,3.8

(31) O=C(c1ccc(COc2ccccc2Cl)o1)N1N=C(C(F)F)CC1(O)C(F)F (centres undefined)
(32) COC(=O)c1ccc(NS(=O)(=O)c2ccc(OC)cc2)cc1
(33) COc1ccc(NC(=S)N2CCC(C(=O)c3ccc(F)cc3)CC2)c(OC)c1
(34) O=C(COC(=O)C12CC3CC(CC(Br)(C3)C1)C2)Nc1ccc2[nH]c(=O)[nH]c2c1
(35) CCC(=O)NNC(=O)CCC(=O)Nc1ccc(C)cc1C
(36) Cc1c(Cl)cccc1NC(=O)CSc1ncnc2c1cnn2CCc1ccccc1

Compound,31,32,33,34,35,36
Mtb growth,6.8%,7.5%,-3.8%,x,5.1%,-5.7%
Arbovirus anti,12.1,14.4,5.8,x,-1.3,4.7
Mtb bLac sens,0.7,-4.4,1.6,-5.4,-11.6,-9.0
YopH inh,-15.8,-31.7,x,x,x,-28.4
RecA splice inh,0.1,0.5,1.0,-2.5,-3.3,-2.9

(37) Nc1ccc(N=Nc2ccc(N)cc2)cc1
(38) CC(=O)c1ccc(NC(=O)C2CCCNC2=O)cc1 (centres undefined)
(39) CC1CN(CCCCOc2ccc(F)cc2)CC(C)O1 (centres undefined)
(40) CN(C)c1nc(-c2ccccc2)ncc1S(=O)(=O)c1ccccc1
(41) CCOC(=O)C1CSc2[nH]c(=O)sc2C1c1ccccc1 (centres undefined)
(42) COc1cc(C(=O)Oc2cccc(C(=S)N3CCOCC3)c2)cc(OC)c1OC

Compound,37,38,39,40,41,42
Mtb growth,1.6%,-0.7%,0.8%,13.9%,7.8%,x
Arbovirus anti,-30.0,4.2,1.1,2.7,5.1,x
Mtb bLac sens,3.1,-6.4,-7.1,0.8,2.2,-2.3
YopH inh,x,-36.0,x,x,-12.9,x
RecA splice inh,0.8,1.3,2.5,0.3,1.4,-1.8

(43) COc1cccc(C(=O)NCC(c2ccco2)N2CCc3ccccc3C2)c1 (centres undefined)
(44) Nc1cc(C(=O)N2CCN(c3ccc([N+](=O)[O-])cc3)CC2)ccc1N1CC2CC(C1)c1cccc(=O)n1C2 (centres undefined)
(45) CCOc1ccccc1N1CCN(C(=O)C(Sc2ccccc2)c2ccccc2)CC1 (centres undefined)
(46) Cc1cccc(CSCCNC(=S)Nc2ccccc2)c1
(47) COc1ccc(C(=O)Nc2nc(CC(=O)NCCc3ccccc3OC)cs2)cc1
(48) N#C/C(=C\c1cccs1)C(=O)Nc1ccccn1

Compound,43,44,45,46,47,48
Mtb growth,x,x,4.6%,4.0%,x,x
Arbovirus anti,x,x,-9.4,-27.9,x,x
Mtb bLac sens,-1.8,2.4,-7.0,19.1,0.6,-7.0
YopH inh,x,x,-7.2,-23.0,x,x
RecA splice inh,4.7,1.6,9.9,4.1,-3.5,-22.8

A draw from above in order of count of non-hydrogen atoms, ascending:
(46) Cc1cccc(CSCCNC(=S)Nc2ccccc2)c1
(43) COc1cccc(C(=O)NCC(c2ccco2)N2CCc3ccccc3C2)c1 (centres undefined)
(44) Nc1cc(C(=O)N2CCN(c3ccc([N+](=O)[O-])cc3)CC2)ccc1N1CC2CC(C1)c1cccc(=O)n1C2 (centres undefined)

Compound,46,43,44
Mtb growth,4.0%,x,x
Arbovirus anti,-27.9,x,x
Mtb bLac sens,19.1,-1.8,2.4
YopH inh,-23.0,x,x
RecA splice inh,4.1,4.7,1.6

Further entries.
(49) Cc1ccc(NC(=O)c2ccc(CSc3nnnn3C)cc2)cc1
(50) Clc1ccc(Cl)c(OCCN2CCCC2)c1
(51) Nc1sccc1C(=O)c1ccc(Cl)cc1
(52) COc1ccc(CN2CCCC(C(=O)c3sccc3C)C2)cc1O (centres undefined)
(53) Cc1cc(C)cc(NS(=O)(=O)c2coc(C(N)=O)c2)c1
(54) CC(C)NC(=O)COC(=O)c1ccc(NS(=O)(=O)c2ccc3c(c2)OCCO3)cc1

Compound,49,50,51,52,53,54
Mtb growth,2.8%,x,40.9%,1.1%,x,5.7%
Arbovirus anti,-13.5,x,-5.4,4.1,x,5.0
Mtb bLac sens,6.4,-2.8,x,12.9,2.8,13.2
YopH inh,-41.2,x,0.3,x,x,5.2
RecA splice inh,-1.9,-2.1,3.5,-0.3,0.1,-1.0

(55) N#C/C(=C\c1cccc(Oc2ccccc2)c1)C(=O)N1CCOCC1
(56) COc1ccc(C2CC(=O)Nc3cc(C)c(C)cc32)c(OC)c1OC (centres undefined)
(57) COC(=O)c1cc(Br)c(=O)n(Cc2cccnc2)c1
(58) C=CCn1c(C)cc(C(=O)COC(=O)/C=C/c2cccc(OC)c2)c1C
(59) CC(=O)Nc1ccc2c(c1)nc(C)n2-c1ccccc1
(60) CC(=O)Nc1ccc(C(=O)Nc2cc(C)on2)cc1

Compound,55,56,57,58,59,60
Mtb growth,0.1%,-3.7%,-7.4%,6.3%,x,x
Arbovirus anti,0.5,-2.2,3.5,8.7,x,x
Mtb bLac sens,-4.0,-7.5,-16.5,7.5,8.6,-0.7
YopH inh,x,-6.8,-17.4,x,x,x
RecA splice inh,11.6,2.3,-3.6,2.1,-0.1,-0.4

Retrieved by structure from the entries so far, 5 records:
(26) COc1ccc(NC(=O)/C(=C/c2ccc3c(c2)OCO3)NC(C)=O)cc1
(8) CCCCn1c(-c2ccsc2)nc2c1c(=O)[nH]c(=O)n2CCC
(42) COc1cc(C(=O)Oc2cccc(C(=S)N3CCOCC3)c2)cc(OC)c1OC
(25) O=C(Nc1ccc2c(c1)OCO2)NC1(C(F)(F)F)Oc2ccccc2O1
(32) COC(=O)c1ccc(NS(=O)(=O)c2ccc(OC)cc2)cc1

Compound,26,8,42,25,32
Mtb growth,3.3%,-3.6%,x,-10.6%,7.5%
Arbovirus anti,-7.0,2.2,x,7.6,14.4
Mtb bLac sens,-1.5,-5.5,-2.3,0.9,-4.4
YopH inh,-0.4,-12.4,x,-10.2,-31.7
RecA splice inh,-0.8,-5.5,-1.8,-4.8,0.5

Next results.
(61) CCOc1ccc(NS(=O)(=O)c2ccc(C(=O)N3CCCCC3)cc2)cc1
(62) Cc1ccc(S(=O)(=O)N2CCN(C(=O)CNC(=O)c3ccc(Br)o3)CC2)cc1
(63) COc1cc(NC(=O)CN2C(=O)C(c3ccccc3)=NC2(C)C)cc(OC)c1
(64) Cc1ccc(N(CC(=O)Nc2ccccc2C(=O)NCc2ccco2)S(=O)(=O)c2ccccc2)cc1C
(65) CCc1cc(=O)oc2c3c(cc(OCC(=O)NCCCC(=O)O)c12)OC(C)(C)CC3
(66) Cn1c(=O)c2cn(-c3ccc4c(c3)OCCO4)cc2n(C)c1=O

Compound,61,62,63,64,65,66
Mtb growth,x,x,-0.5%,10.5%,x,-0.7%
Arbovirus anti,x,x,5.2,1.1,x,-5.7
Mtb bLac sens,-8.2,-2.2,3.8,-5.2,-1.6,14.1
YopH inh,x,x,x,-43.1,x,-46.5
RecA splice inh,2.2,1.7,-0.3,7.6,-0.5,0.7

(67) CC1(c2ccc(Cl)cc2)NC(=O)CS1 (centres undefined)
(68) Cc1ccc(CCNC(=O)C2CCC(=O)N2Cc2ccc(F)cc2)cc1 (centres undefined)
(69) C1CN(CCN2CCOCC2)CCN1
(70) O=C(CCl)N(Cc1cc(=O)[nH]c2ccccc12)c1ccccc1
(71) COc1cc(/C=C2\C(=O)N(CCC#N)N=C2C)ccc1OCC(=O)Nc1ccccc1
(72) CCCCn1c2ccccc2c2cc(CC(N)=O)ccc21

Compound,67,68,69,70,71,72
Mtb growth,-5.4%,x,x,x,-5.3%,-6.7%
Arbovirus anti,-15.5,x,x,x,-5.9,x
Mtb bLac sens,6.1,-7.4,-8.6,90.1,1.8,2.3
YopH inh,x,x,x,x,-24.5,x
RecA splice inh,2.7,1.2,-3.9,68.6*,78.9*,1.9

(73) O=C(c1cccc(N2C(=O)C3CC=CCC3C2=O)c1)N1CCN(c2ccccc2)CC1 (centres undefined)
(74) CO/N=C/C1CCN(c2ncc(C(F)(F)F)cc2Cl)C1=O (centres undefined)
(75) CCn1c(CC(=O)Nc2ccccc2F)nnc1SCC(=O)N1CCN(c2ccccc2)CC1
(76) CCOc1ccc(C=NCC(O)c2ccccc2)cc1 (centres undefined)
(77) O=C(CSc1ncccn1)Nc1ccc2[nH]c(=O)[nH]c2c1
(78) O=C(Oc1ccc(OC(=O)c2ccco2)c(S(=O)(=O)c2ccc(Br)cc2)c1)c1ccco1

Compound,73,74,75,76,77,78
Mtb growth,x,-2.5%,3.7%,x,x,-6.6%
Arbovirus anti,5.1,-0.5,8.6,x,x,6.6
Mtb bLac sens,-2.1,-6.7,-8.3,-6.7,-8.9,0.7
YopH inh,-29.8,x,30.1,x,x,5.6
RecA splice inh,x,1.2,-1.7,-2.3,-4.6,14.1

Screening data from PubChem BioAssay.

Some of the compounds tested; the hit share may differ from the screen's.
